CDC25B-CDK2 inh: human CDC25B-CDK2/CyclinA binding inhibition. 94,000 tested, 0.72% active. P30305+P24941. z-score (concentration not given with the values). HTRF CDC25B-CDK2/CyclinA binding, anti-His/anti-Flag; active compounds read high;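 further: score is relative to mean and SD of negative controls; strong numbers were not always called active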
HIV TAR-Tat: HIV-1 TAR-Tat binding disruption | HIV-1 TAR RNA, Tat peptide displacement FRET; active compounds read high | z-score (no concentration beside the values) | 100,000 tested, 0.6% active | AID 1259389;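 further: score is relative to mean and SD of negative controls; some compounds called inactive have numbers as strong as hits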
Starred values were filed as active, the others as inactive; . = no result given.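 How the source made its calls: active means z-score from 3 up in half or more of its runs; inactive means the rest.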

canonical_smiles,CDC25B-CDK2 inh,HIV TAR-Tat
Oc1ccccc1/C=N/Nc1cccc(C(F)(F)F)c1,-1.2,.
O=C(Nc1ccc(F)c(Cl)c1)c1cc2n(n1)C(C(F)(F)F)CC(c1cccs1)N2 (configuration not stated),-2,2.5
COc1cccc(C2CC(=O)N3CN(c4ccc(N(C)C)cc4)CSC3=C2C#N)c1 (configuration not stated),7.2*,-1.3
CCOc1ccc(N2C(=O)c3cccnc3C2O)cc1 (configuration not stated),-0.26,0.41
COC(=O)c1sc(NC(C)=O)nc1C,-1.9,0.35
COc1cc(NC2=NS(=O)(=O)C(c3ccc(C)cc3)=C2C)cc(OC)c1,-5.3,0.21
O=C(Cn1c(=O)c2cccn2c2ccc(F)cc21)N1CCN(c2ccccc2F)CC1,.,1.4
CCOc1ccc(NC(=O)C2C3C=CC4(O3)C2C(=O)N(C2CC2)C4C(=O)NC2CCCCC2)cc1 (configuration not stated),0.02,-0.09
CCOC(=O)C(=NNc1ccc(OC)cc1[N+](=O)[O-])C(=O)OCC,-1.5,.
Cn1c(=O)c(=O)n(C)c2cc(S(=O)(=O)CCC(=O)NCc3ccco3)ccc21,1.5,1.9
Fc1ccc(Nc2ncnc3onc(-c4cccc(Cl)c4)c23)cc1,-0.66,1
COc1ccccc1C1C2=C(CC(C)(C)CC2=O)Nc2nc(SCC(C)C)[nH]c(=O)c21 (configuration not stated),-2.7,1.5
CCN(CC)CCN(C(=O)CN1C(=O)CCC1=O)c1nc2c(Cl)cccc2s1,.,1.2
COc1ccccc1N1CCN(S(=O)(=O)c2ccc(C(F)(F)F)cc2)CC1,0.9,.
CCOc1ccc(C2C(C(=O)OC(C)C)=C(C)NC3=C2C(=O)CCC3)cc1 (configuration not stated),-1.4,2.2
CC1CCC(NS(=O)(=O)c2ccc(-c3cc(C(F)(F)F)on3)s2)CC1 (configuration not stated),.,0.57
COC(=O)Cn1nnc2sc3c(c2c1=O)CCCC3,-2,-0.45
Cc1cc(C(=O)Nc2ccccc2N2CCOCC2)c(C)o1,-1.2,.
Cc1cc(C)c(S(=O)(=O)NCc2nc(N)n(S(=O)(=O)c3c(C)cc(C)cc3C)n2)c(C)c1,-0.73,0.65
Cc1ccc(-c2nc3cccnc3n2CCCNS(=O)(=O)N(C)C)cc1,.,-3.9
N=C1C(c2nc3ccccc3s2)=C(O)CN1Cc1ccccc1,-0.49,0.17
CCOCCSc1nc(N2CCOCC2)c2c(c1C#N)CC(C)(C)OC2,2.5,.
CN(NC(=O)CSCC(=O)O)c1cc(C(F)(F)F)ccn1,-1.4,.
COc1ccc(CCN=C2NS(=O)(=O)C(c3cccc(Br)c3)=C2C)cc1OC,-3,-0.77
O=c1c(NC2CCCCC2)c(-c2ccccc2)c1=O,.,1.1
CCOC(=O)C1CNc2cc(Cl)ccc2O1 (configuration not stated),-1.4,0.41
Cc1ccc(-c2nc(-c3ccc(Cl)cc3)no2)cc1C,-0.49,.
CCCCCc1nn2cc(-c3ccccc3)nc2s1,-2,2.5
Cc1ccc2oc(=O)n(CCC(=O)NNC(=O)c3nc(-c4cccs4)no3)c2c1,-0.78,.
COc1ccc(S(=O)(=O)Nc2ccc3c(c2)N(S(=O)(=O)c2ccccc2)CCC3)cc1OC,.,2.7
C=CCn1c2ccccc2c2nnc(SCC(=O)Nc3cc(C)on3)nc21,-6.4,-0.73
O=C(Nc1c(Cl)cccc1Cl)Oc1ccc(F)cc1Cl,-2,.
CC(C)CNC(=O)C(=O)Nc1c2c(nn1-c1ccc(Cl)cc1)CSC2,.,1.2
Fc1cc(F)cc(-c2noc3ncnc(N4CCC(N5CCCCC5)CC4)c23)c1,.,1.2
CCn1c2ccccc2c2cc(C3C(C(=O)OCCOC)=C(C)NC4=C3C(=O)CCC4)ccc21 (configuration not stated),-2.9,0.4
Cc1cc(=O)n2nc(N3CCC(C(=O)NCc4ccco4)CC3)sc2n1,-0.66,-1.3
CCC(C(=O)NC(C)CCc1ccccc1)n1nc(C)n2c(cc3occc32)c1=O (configuration not stated),-1.1,2
C=CCNC(=O)c1sc(=S)n(CC)c1N,-1.6,-0.15
O=C(O)CSc1nnc2n(Cc3ccccc3)c3ccccc3n12,-0.9,-0.86
O=C(Nc1cccnc1)C1CCN(c2ncnc3c2nc2n3CCCCC2)CC1,.,-0.34
O=C(Cn1c(=O)oc2ccccc21)Nc1nnc(SCc2ccccc2Cl)s1,0.15,0.2
CCOC(=O)C1CCCN(C(=O)S(=O)(=O)c2ccc(-c3csc(C)n3)s2)C1 (configuration not stated),-0.12,.
C=CCN(C(=O)CSc1nnc(CC)n2c1cc1sccc12)c1ccccc1,.,3.9
O=C(Nc1ccncc1)C1CCCN(S(=O)(=O)c2cccc3cccnc23)C1 (configuration not stated),-0.51,2.2
CCCC1=C(C(=O)OCC)C(c2ccncc2)C(C#N)=C(N)O1 (configuration not stated),-1.1,.
COC(=O)c1cc(-c2ccccc2)c2c(=O)[nH]c(=O)n(C)c2n1,-5.1,-1
CCCCN1Cc2c(nc3cc(-c4ccccc4)[nH]n3c2=O)C1=O,-1.1,.
COc1ccc(CCNC(=O)c2ccccc2NC(=O)c2ccccc2C)cc1OC,-1.6,.
O=c1[nH]c(Cn2c(-c3cncs3)nc3ccccc32)nc2ccccc12,-4.6,0.23
COc1ccc(NC(=O)c2c[nH]n3c(=O)cc(C4CCNCC4)nc23)cc1Cl,6.9,0.13

(next part)
canonical_smiles,CDC25B-CDK2 inh,HIV TAR-Tat
CCOC(=O)CN1CC23C=CC(O2)C(C(=O)NC(C)c2cccs2)C3C1=O (configuration not stated),0.4,.
CC(=O)N1c2ccc(S(=O)(=O)NC(C(=O)Nc3ccccn3)C(C)C)cc2CC1C (configuration not stated),.,-1.3
CC(C)OCCCNc1ncnc2scc(-c3ccc(F)cc3)c12,.,0.57
COc1ccc(CCNS(=O)(=O)c2cn(C)cn2)cc1OC,.,1.6
CCN(C(=O)C(=O)c1c[nH]c2ccccc12)C1CCCCC1,-2.5,.
CCOC(=O)N1CCN(C(=O)c2sc3ncn(CC)c(=O)c3c2C)CC1,.,2.7
CCOC(=O)c1c(S(=O)(=O)NCCCc2ccco2)c(C)n(C)c1C,.,0.55
COc1ccc(OCCC(=O)NNC(=S)Nc2cc(Cl)ccc2Cl)cc1,-1.4,.
Cn1c(=O)c2c(nc(NC3CCCCC3)n2Cc2ccccc2)n(C)c1=O,-0.63,-1.1
COc1ccccc1N1CCN(S(=O)(=O)c2cc3c4c(c2)CC(=O)N4CCC3)CC1,.,2
CC1CN(C(=O)Cn2cc(SCC(=O)N3CCOCC3)c3ccccc32)CC(C)O1 (configuration not stated),.,0.59
O=C1c2ccccc2C(=O)N1CN(Cc1ccc2c(c1)OCO2)CN1C(=O)c2ccccc2C1=O,-3.3,.
Cc1nn2cnnc2c(C)c1CCC(=O)Nc1cc(F)ccc1F,.,0.88
Cn1c(=O)[nH]c(=O)c2c1nc(NCCCO)n2Cc1ccc(F)cc1,-0.74,1
COc1ccc(-n2ncc(C(=O)NCc3ccc(-c4cccs4)cc3)c2C)cc1,-1.8,.
COCCNC(=O)Cn1ncn2c(cc3cc(F)ccc32)c1=O,-0.87,1.7
O=C1c2cccnc2C(=O)N1Cc1ccc(S(=O)(=O)N2CCc3ccccc3C2)s1,.,1.5
CCc1ccc(-c2cc(C)no2)cc1S(=O)(=O)NCc1ccco1,.,-0.29
CC[C@H]1OC(=O)[C@H](C)[C@@H](O[C@H]2C[C@@](C)(OC)[C@@H](O)[C@H](C)O2)[C@H](C)[C@@H](O[C@@H]2O[C@H](C)C[C@H](N(C)C)[C@H]2O)[C@](C)(O)C[C@@H](C)[C@@H]2N[C@@H](COCCOC)O[C@H]([C@H]2C)[C@]1(C)O,.,0.95
O=C(NCc1c(-c2ccc(Cl)cc2)nc2n1CCS2)C1COc2ccccc2O1 (configuration not stated),.,1.2

Single records (already shown). Order of screens: CDC25B-CDK2 inh, HIV TAR-Tat
`CCN(CC)CCN(C(=O)CN1C(=O)CCC1=O)c1nc2c(Cl)cccc2s1` reads ., 1.2
`COc1ccccc1N1CCN(S(=O)(=O)c2ccc(C(F)(F)F)cc2)CC1` reads 0.9, .
`C=CCN(C(=O)CSc1nnc(CC)n2c1cc1sccc12)c1ccccc1` reads ., 3.9
`CCOc1ccc(NC(=O)C2C3C=CC4(O3)C2C(=O)N(C2CC2)C4C(=O)NC2CCCCC2)cc1` (configuration not stated) reads 0.02, -0.09
`CCOC(=O)C1CCCN(C(=O)S(=O)(=O)c2ccc(-c3csc(C)n3)s2)C1` (configuration not stated) reads -0.12, .

Following part:
canonical_smiles,CDC25B-CDK2 inh,HIV TAR-Tat
CC(C)(C)OC(=O)N[C@@H](Cc1ccccc1)c1n[nH]c(=S)n1CC1CCCO1 (some centres not stated),-2.7,.
CCC1Sc2ccc(S(=O)(=O)N(CC)c3ccccc3)cc2NC1=O (configuration not stated),.,-0.45
Cc1cc2c3c([nH]c2cc1S(=O)(=O)N(C)CC1COc2ccccc2O1)CCCC3=O (configuration not stated),.,2.2
O=C(CN1CCSc2ccccc21)NCCN1CCN(c2cccc(Cl)c2)CC1,.,-0.14
CC(C)Cn1cc(NC(=O)Nc2ccc(F)cc2F)c2ccccc2c1=O,.,0.89
COc1ccc2c(c1)CC(C(=O)Nc1ccc3c(c1)OCO3)CO2 (configuration not stated),.,-0.25
CCOC(=O)Nc1nc2ccc(C)cc2s1,-0.75,4.5
COc1ccc(NS(=O)(=O)c2cc(Br)cc3c2N(C(=O)C2CC2)CC3)cc1Cl,-2.4,0.5
Cc1ccccc1-c1nc2c3c(C)c(C)n(Cc4ccncc4)c3ncn2n1,0.77,1.6
COc1ccc(NCc2nc3nc(C)c(Cl)c(C)n3n2)cc1,0.5,1.3
CC1CCN(CC2CCN(S(=O)(=O)c3cccc4nsnc34)CC2)CC1,.,-0.43
Cc1nc2c3ccccc3n3c(CCCC(=O)NCc4ccccn4)nnc3n2n1,0.2,-2.1
CNc1nc(Nc2ccc(F)cc2)c2cnn(C)c2n1,.,1.8
Cc1cc(CNC(=O)NCC2CCCO2)c(C)n1-c1cccc(Cl)c1 (configuration not stated),.,1.7
CCCc1cc(=O)n2[nH]c(NC(C)=O)nc2n1,-0.79,-0.8
O=C(Nc1nc2ccccc2s1)c1cc2c(s1)-c1ccccc1OC2,-0.57,0.62
CCC1Sc2ccc(S(=O)(=O)Nc3ccc(OC)c(OC)c3)cc2NC1=O (configuration not stated),.,-2.1
Cc1c(CNCc2ccc3c(c2)OCO3)c(C(=O)O)c(C)n1Cc1ccc(F)cc1Cl,0.1,3.7
CCS(=O)(=O)c1ncc(Cl)c(C(=O)N(Cc2ccccc2)C2CCS(=O)(=O)C2)n1 (configuration not stated),-1.9,1.1
COc1ccccc1NC(=O)N1CCN2C(=O)c3ccccc3C12c1ccccc1 (configuration not stated),-1.6,.

Copied from the list:
`Cc1cc(CNC(=O)NCC2CCCO2)c(C)n1-c1cccc(Cl)c1` (configuration not stated) in HIV TAR-Tat reads 1.7
`CCC1Sc2ccc(S(=O)(=O)Nc3ccc(OC)c(OC)c3)cc2NC1=O` (configuration not stated) in HIV TAR-Tat reads -2.1

Remaining list, next part
canonical_smiles,CDC25B-CDK2 inh,HIV TAR-Tat
Fc1ccc(-c2nnc3ccc(N4CCCCC4)nn23)cc1,-0.51,.
N#Cc1c(N2C(=O)C3CC=C(Cl)CC3C2=O)sc2c1CCCC2 (configuration not stated),0.35,2.5
CCOC(=O)c1c(NC(C)=O)sc2c(O)c(Sc3ccccc3)ccc12,-4.3,1.7
Cc1ccc(Nc2nc3ccccc3n3c(C)nnc23)cc1F,-2.2,1.3
CCCc1c(C)[nH]c2[nH]n(-c3ccccc3)c(=O)c2c1=O,-8.2,0.16
COc1cc(C(=O)N2CCN(Cc3c[nH]c4ccccc34)CC2)cc(OC)c1OC,-0.25,.
O=C(CC1CSc2ccccc2NC1=O)Nc1ccccc1 (configuration not stated),.,0.41
Cn1nnnc1SCCCNCc1ccc(OCc2ccccc2)cc1,-0.06,1.3
O=C(Cn1nnc2sc3c(c2c1=O)CCCC3)NC1CCCCC1,0.48,.
CN(C)CCCn1cc2c(c1-c1cccc(Br)c1)c(=O)n(C)c(=O)n2C,-0.18,1.4
O=C(NC1CCCCC1)c1cccn1-c1nnc(N2CCCCC2)s1,.,0.94
CCc1cc2c3c([nH]c2cc1S(=O)(=O)N1CCCc2ccccc21)CCCC3=O,.,1.1
COc1cc(OC)cc(C(=O)OCn2nnc3ccccc3c2=O)c1,.,1.8
CC1CC(C)CN(S(=O)(=O)c2ccc3c(c2)oc(=O)n3CC(=O)NC2CCCCCC2)C1 (configuration not stated),-0.36,.
Cn1c(=O)c2c(nc(N3CCCCC3)n2Cc2ccccc2F)n(C)c1=O,1.6,-0.05
CCS(=O)(=O)NCCc1cc2c(OC)ccc(OC)c2[nH]c1=O,-2.2,.
CCc1ccc(C2c3c(-c4cc(C)ccc4O)n[nH]c3C(=O)N2CCCO)cc1 (configuration not stated),-0.4,0.77
COc1cc(NC(=O)c2cc(S(=O)(=O)N3CCCC3)cn2C)cc(OC)c1,.,1.3
